Menin-MLL FL inh: qHTS Assay for Inhibitors Targeting the Menin-MLL Interaction in MLL Related Leukemias: Competition With Fluorescein Labeled MLL-derived Peptide | Fluorescence polarization, fluorescein-MLL peptide displacement from menin | FP activity change, % at 61.4 µM | 290,000 tested, under 10 active; inconclusive = falling polarisation curve, or a change in total fluorescence; inactive = total fluorescence flat and polarisation flat or rising; no compound was filed as active; the % refers to the polarisation; negative = inhibition;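 note: % of control where 0% means no effect; inhibitors lower the polarisation; unlabelled MLL peptide was the positive control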
ClpP mod: qHTS Assay for Activators of ClpP. ATP-dependent Clp protease proteolytic subunit (Bacillus subtilis (strain 168)), P80244. purified B. subtilis ClpP, FRET peptide cleavage, 20 min. Potency, µM (series often up to 57.5 µM), for inactives: at the highest dose activity change, negative = active. 1.9% of 340,000 active; active = well fitted falling curve with a large enough effect; inconclusive = small, poorly fitted or top-dose-only effect; inactive = no such curve, though single readings can be large or run the other way; note: potency is the fitted concentration of half-maximal effect; the source files actives as falling curves though it sought activators and does not explain the sign; nearly all actives have a fitted effect of over 65% in size; many hits overshoot -100%
Target sequence (P80244 whole entry, looked up): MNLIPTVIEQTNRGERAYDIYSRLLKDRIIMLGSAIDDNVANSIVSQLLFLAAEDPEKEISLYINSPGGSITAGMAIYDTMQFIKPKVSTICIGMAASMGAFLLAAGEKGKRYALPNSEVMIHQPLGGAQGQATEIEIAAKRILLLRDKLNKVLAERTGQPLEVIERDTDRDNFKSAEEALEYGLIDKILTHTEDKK
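Purified B. subtilis ClpP, 10 microg/mL final in Tris/HCl pH8 with KCl, BSA, glycerol and Tween-20, cleaved an Abz/nitrotyrosine-quenched decapeptide. Fluorescence (ex 320, em 430) was read at 0 and 20 min at room temperature. Delta was normalized to 5.8 microM ADEP and DMSO/no-enzyme controls.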
TRPML1 blocker: qHTS for Inhibitors of the Human Mucolipin Transient Receptor Potential 1 (TRPML1) | Mucolipin-1 (Homo sapiens), Q9GZU1 | TRPML1-inducible cells, Ca2+ dye fluorescence, FDSS; stronger effect = lower value; inhibition of EC80 agonist-evoked calcium signal | activity change, negative = inhibition, % (test concentration not listed) | 0.02% of 390,000 active; in the data active means activity change below about -50%; inconclusive means about -30% to -50%; inactive means above about -30%;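 note: stimulus is agonist 54-4 at its EC80 concentration; % is set by controls: 0 for no effect and ±100 for the full control effect; compound concentration not given in the record; the text of the record puts the active cut at -80%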
Target sequence (Q9GZU1 whole entry, looked up): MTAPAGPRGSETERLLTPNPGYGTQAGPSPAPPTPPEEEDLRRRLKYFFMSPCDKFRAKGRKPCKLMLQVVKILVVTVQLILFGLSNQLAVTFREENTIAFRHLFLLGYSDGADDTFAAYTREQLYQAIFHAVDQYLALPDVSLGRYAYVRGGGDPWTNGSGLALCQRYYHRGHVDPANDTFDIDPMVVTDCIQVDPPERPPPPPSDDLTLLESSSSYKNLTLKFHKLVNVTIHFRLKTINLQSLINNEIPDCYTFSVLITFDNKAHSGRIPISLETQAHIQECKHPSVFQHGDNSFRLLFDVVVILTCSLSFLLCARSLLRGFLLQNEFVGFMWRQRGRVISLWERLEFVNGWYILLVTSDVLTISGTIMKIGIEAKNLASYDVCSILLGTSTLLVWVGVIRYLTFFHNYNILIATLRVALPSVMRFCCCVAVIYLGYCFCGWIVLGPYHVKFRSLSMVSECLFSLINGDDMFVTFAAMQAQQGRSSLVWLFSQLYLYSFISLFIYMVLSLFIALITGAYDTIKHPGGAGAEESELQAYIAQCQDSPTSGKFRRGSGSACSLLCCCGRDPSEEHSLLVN
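Calcium fluorescence in TRPML1-DL cells induced overnight with Tet: a 110 s read after compound pin addition, then a 110 s antagonist read after challenge with 54-4 at 4 uM final (EC80).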
gsp ag: qHTS for Agonist of gsp, the Etiologic Mutation Responsible for Fibrous Dysplasia/McCune-Albright Syndrome: qHTS | gsp mutant cells, cAMP HTRF, 30 min; control for the full effect not named in the record | Potency, µM (doses to about 76.9 µM), for the others: at the top dose activation (cAMP increase), usual class: activators | 0.13% of 340,000 active; active = well fitted activation curve with a large enough effect; inconclusive = small, poorly fitted or top-dose-only effect, or another doubt; inactive = no such curve, though single readings can be large or run the other way; cell line not stated here;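 note: phosphodiesterase inhibitor Ro 20-1724 added with compounds to block cAMP breakdown; potency is the fitted concentration of half-maximal effect; nearly all actives have a fitted effect of over 60% in size; about a fifth of the inactives were tested at one dose only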
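Cells in DMEM/10% FBS with G418 were pretreated with compounds in DMSO plus […] (300 uM stock) for 30 min at 37C. cAMP was measured by HTRF (cAMP-d2 plus anti-cAMP antibody-K) after 30 min at room temperature.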
gsp antag: qHTS for Antagonists of gsp, the Etiologic Mutation Responsible for Fibrous Dysplasia/McCune-Albright Syndrome: qHTS | gsp-mutant cells, cAMP HTRF, 30 min; control for the full effect not named in the record | Potency, µM (titrated, usually from 76.9 µM), for inactives: at the top dose activity change, negative = inhibition, hits mostly inhibitors | 0.4% of 340,000 active; active = falling curve of any shape with a large fitted effect; inconclusive = falling curve, mostly with a smaller effect; inactive = flat or rising curve; cell line not stated here;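 note: intracellular cAMP measured with PDE inhibitor Ro 20-1724 present during compound exposure; potency is the fitted concentration of half-maximal effect; % is set by controls: 0 for no effect and ±100 for the full control effect; nearly all actives have a fitted effect of over 65% in size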
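Measurement of cellular cAMP by homogeneous time-resolved fluorescence following a 30 min compound exposure at 37C. The PDE inhibitor […] was present throughout; the assay buffer was DPBS with 0.05% BSA and 0.005% Tween 20.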
Sfp inh: qHTS Assay for Inhibitors of Bacillus subtilis Sfp phosphopantetheinyl transferase (PPTase) | 4'-phosphopantetheinyl transferase ffp (Bacillus subtilis), Q9F4F7 | Biochemical Sfp PPTase activity, qHTS | Potency, µM, without a hit: max response, negative = inhibition, most hits filed as inhibitors | 3.5% of 310,000 active | AID 1490, 2009; active = well fitted inhibition curve with a large enough effect; inconclusive = small, poorly fitted or top-dose-only effect, or another doubt; inactive = no such curve, though single readings can be large or run the other way;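 note: the enzyme is Sfp with the accession as filed and its product quenches rhodamine fluorescence; potency is the fitted concentration of half-maximal effect; 0% = enzyme reaction without inhibitor and -100% = no enzyme wells; top concentration of the series not given in the record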
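Fluorescence-quenching assay: 15 nM Sfp-PPTase preincubated 15 min at room temperature with compound, then 5 uM rhodamine-CoA and 12.5 uM BHQ-2-labelled YbbR peptide added. Fluorescence (ex 525/em 598 nm) read at start and after 30 min; difference gives rate.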
TRPV1 PAM: HTS Assay for Compounds that Act as Potentiators of the Vanilloid Receptor 1. AID 540277, 2011. Transient receptor potential cation channel subfamily V member 1 (Homo sapiens), Q8NER1. 0.02% of 320,000 active. TRPV1-expressing cells, Fluo-8 calcium influx, capsaicin EC20 potentiation; host cell line not named in the record; control for the full effect not named in the record. potentiation, % at 8.33 µM; active means potentiation above 80%; inconclusive means 30% to 80%; inactive means below 30%; note: 0% is about no effect
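TRPV1-expressing cells were cultured overnight at 35.5C and loaded with Fluo-8 calcium dye for 40 to 90 min at room temperature. After a 10 s baseline, compound was added and calcium influx was read kinetically for 3 min (ex 480/em 520 nm).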
An asterisk follows results filed as active; ? = inconclusive; . = not tested or not shown; & = joins results of further samples; [ ] = dose if it differs, or a comment.

SMILES	Menin-MLL FL inh	ClpP mod	TRPML1 blocker	gsp ag	gsp antag	Sfp inh	TRPV1 PAM
CC1CN(c2ccc([N+](=O)[O-])cn2)CC(C)O1 (stereo not drawn)	0.0	.	0	7%[15.4 µM]	3%	2%	2
CCC(=O)N(C)C(c1ccccc1Cl)c1nnnn1-c1c(C)cccc1C (stereo not drawn)	-0.1	-0.9%	1	-6%	9%	-1%	-20
CC1(C)SC2c3ccccc3C(=O)N2C1C(=O)O (stereo not drawn)	.	-0.7%	8	13%	2%	.	.
COc1ccc(N2CCN(CC(O)c3c[nH]c4ccc(OC)cc34)CC2C)cc1 (stereo not drawn)	3.4	-11%	-4	-37%[inhibitor]	1%	-10%	-9
Cc1ccccc1C(=O)Nc1ccccc1-n1cccc1	3.6	-5.2%	-15	3%	-13%	1%	0
Cc1ccc(C)c(OCC(=O)NCC(C)(C)N2CCOCC2)c1	.	-2.2%	-6	-2%	9%	.	3
COc1ccc(OC)c(/C=N\NC(=O)c2ccc(=O)n(C)c2)c1	2.4	?	-2	19%[15.4 µM]	-2%	12%	5
O=C(Cc1ccccc1)c1ccc(O)cc1O	.	1.2%	4	6%	-6%	.	.
CC(C)CC1NC(=O)c2cccnc2-n2c1nc1cc(F)ccc1c2=O (stereo not drawn)	.	-7.8%	0	13%	.	.	.
Cc1ccc(-c2noc(CCC(=O)Nc3ccccc3N3CCN(C)CC3)n2)cc1	0.1	-2.5%	-6	13%	-4%	-5%	-5
CCOC(=O)C1(CCCc2ccccc2)CCN(Cc2cnn(C)c2)CC1	-0.1	.	5	6%	7%	6%	-5
COc1ccc(NS(=O)(=O)c2cc(OC)ccc2OC)cc1	.	0.5%	5	-17%[15.4 µM]	-1%	.	.
CCC(C)N1C(=O)N(C)C2NC(=O)NC21 (stereo not drawn)	-0.7	1.0%	-15	4%	12%	3%	7
Cc1ccc(-c2cc(-c3ccccc3)c(C#N)c(N)n2)o1	5.4	4.1%	27	-5%	-11%	7.9µM*	4
O=C(NCc1cccs1)c1cccn2c(=O)c3sccc3nc12	-1.8	.	2	-3%	9%	5%	22
COc1ccc(NC(=O)CC2(CC(=O)N3CCOCC3)CCCC2)cc1Cl	.	0.9%	-16	1%[15.4 µM]	-3%	.	-13
COc1cc(C(=O)NCCCOC(C)C)ccc1OC1CCN(C(C)=O)CC1	-0.3	-2.2%	3	9%	3%	10%	-9
CCCCCc1cc(=O)oc2c(C(CCN3CCCC3)c3ccc(N(C)C)cc3)c(OC)cc(OC)c12 (stereo not drawn)	-1.5	90%	1	.	13%	79µM*	-29
O=C(CN1CCN(c2ccccc2O)CC1)NC(=O)NC1CCCC1	-0.3	.	-16	-7%[15.4 µM]	5%	-6%	-8
C(=N\N(c1ccccc1)c1ccccc1)/c1ccccn1	2.9	.	7	-6%	-4%	-2%	-10
O=C(Oc1ccc2ccc(=O)oc2c1)N1CCOCC1	3.1	?	-9	-22%	8%	1%	-4
COc1ccc(S(=O)(=O)N2CCCCC2)cc1	0.9	-1.0%	27	-30%[inhibitor]	6%	0%	-4
CCN(CC)CCCNC(=O)c1ccc(CS(=O)(=O)c2ccccc2OC)o1	-0.6	0.1%	12	0%	4%	10%	-3
CC1Cc2ccccc2N1S(=O)(=O)c1cccc(C(=O)NCc2ccco2)c1 (stereo not drawn)	.	1.0%	-4	-10%[15.4 µM]	-7%	.	.
Cc1cccc(C(=O)NNC(=O)c2ccc(F)cc2)c1	1.2	0.1%	5	?	16%	4%	-11
Cc1cc(C)nc(SCC(=O)c2ccc(O)cc2O)n1	1.2	0.1%	-4	4%	-11%	45µM*	17
CN(Cc1cccc(C(F)(F)F)c1)C(=O)C1CCC(=O)N(CC2CCCCC2)C1 (stereo not drawn)	-1.6	0.9%	24	-19%	-8%	11%	-24
Cc1c(C(=O)NC(=S)Nc2ccc(NC(=O)c3cccs3)cc2)oc2ccccc12	0.1	1.2%	.	-1%	7%	8.9µM*	4
O=C(Cn1cnc2c(nnn2Cc2ccc(Cl)cc2)c1=O)N1CCCc2ccccc21	-0.1	-0.6%	21	-34%	-2%	17%	-9
CCOC(=O)c1cc(OC(=O)c2ccccc2OC)n(-c2ccccc2)n1	1.5	-14%&-1.4%	-2&-19	-6%	-7%	-12%	-1
CCOC(=O)C1(CC2CC2)CCN(Cc2ccc3cccc(F)c3n2)CC1	-5.5	1.1%	-14	-54%[inhibitor]	-13%	19%	-15
COc1ccc(C(=O)Nc2sc(C)c(-c3ccccc3)c2C#N)cc1OC	2.0	?	36	-1%	-11%	?	-12
CCOC(=O)Cc1nn(Cc2nc(-c3ccc(C#N)cc3)cs2)c(=O)c2ccccc12	1.0	.	20	-1%[15.4 µM]	-21%	?	.
COc1ccc(NS(=O)(=O)c2cccc(NC(=O)NC3CCCCC3)c2)cc1	-1.5	-3.1%	-9	-4%[15.4 µM]	-17%	1%	-8
C#CCOCCOCCOCCNc1nc(N2CCN(C(=O)[C@H]([C@@H](C)O)n3cc(CCCCN)nn3)CC2)nc(N2CCN(C(=O)[C@H](C)n3cc(CCC(=O)O)nn3)CC2)n1	.	1.0%	-20	0%	13%	.	.
CC1(C)O[C@@H]2[C@@H](CO[C@@]3(COS(N)(=O)=O)OC(C)(C)O[C@@H]23)O1	2.9	.	.	.	.	19%	7
O=C(NCc1n[nH]c(=S)n1-c1cccc(Cl)c1)c1ccc(S(=O)(=O)N2CCCC2)cc1	5.7	-1.6%	4	30%	0%	?	12
COCC(=O)N1CCc2ccc(NC(=O)c3ccc(C(F)(F)F)cc3)cc2C1	.	.	4	25%	-7%	.	.
CCc1ccc(C(=O)CSC2=C(C#N)C(c3ccco3)C(C(C)=O)=C(C)N2)cc1 (stereo not drawn)	12	-5.1%	.	.	.	56µM*	?
CCCCn1c(SCC(=O)c2ccc(OC)c(OC)c2)nc2cc(S(N)(=O)=O)ccc21	5.6	1.1%	3	-26%	9%	-20%	14
CN(C)CCSc1nnc2sc3ccccc3n12	4.4	0.0%	22	?	5%	21%	2
CCN(CC)c1ccc(N=Nc2nn(C)c(C)c2[N+](=O)[O-])cc1	1.2	1.9%	19	20%	-7%	-14%	-2
COc1cccc(-c2noc(C3CCCN(S(=O)(=O)c4cccc(Cl)c4C)C3)n2)c1 (stereo not drawn)	-7.2	-4.9%	67	-6%	-5%	10%	4
Cc1ccc(C)[n+](CC(=O)c2ccc(-c3ccccc3)cc2)c1	-2.7	.	-13	-2%[15.4 µM]	5%	-9%	8
COc1ccccc1Nc1nc(Cl)nc(NC(C)(C)C)n1	3.3	.	-8	12%[15.4 µM]	-10%	3%	-3
NC(=O)c1oc2ccccc2c1NC(=O)c1ccc(F)cc1	-3.3	19%	-2	22%	-10%	8%	8
CCOC(=O)C1(Cc2cccc(OC)c2)CCN(C(C)COC)CC1 (stereo not drawn)	0.6	0.9%	42	-33%[inhibitor]	12%	2%	-1
COc1ccc(NC(=O)Cn2ccc(C(F)(F)F)n2)cc1S(=O)(=O)N1CCOCC1	.	.	-10	-10%	14%	.	.
CCCCCCSC1=C(C#N)C(=O)NC2(CCCCC2)S1	1.1	0.0%	-3	-16%	12%	19%	9
CC1(C)OC(=O)N(CCc2ccccc2)C1(C)O (stereo not drawn)	2.3	0.3%	2	28%	10%	17%	-1
(next part)
SMILES	Menin-MLL FL inh	ClpP mod	TRPML1 blocker	gsp ag	gsp antag	Sfp inh	TRPV1 PAM
COc1ccc(S(=O)(=O)CCC(=O)N2CCN(c3ccc(C(C)=O)cc3)CC2)cc1	.	-6.5%	-1	?	-18%	14%	0
Cc1cnc(NC(=O)C2(c3ccccc3)CC2)s1	-2.4	.	23	-34%[inhibitor]	10%	11%	-11
COc1ccc(C(=O)N(c2ccccc2)C2C=CS(=O)(=O)C2)cc1 (stereo not drawn)	1.7	4.1%	-10	-11%	-8%	7%	6
Cc1ccc(NC(=S)c2nc3ccccc3s2)cc1	2.5	-2.0%	-2	9%	5%	14%	-10
CCOc1ccc(-c2ccc(SCC)nn2)cc1	-0.1	.	18	8%[15.4 µM]	-3%	25%	3
O=S(=O)(c1ccccc1)N1CCN(Cc2ccccc2)c2ccccc21	.	-1.8%	45	-35%[inhibitor]	-13%	.	.
Cc1ccc(C(C(=O)NCc2ccco2)N(C(=O)Cc2cccs2)c2cccnc2)cc1 (stereo not drawn)	5.0	.	5	9%[15.4 µM]	4%	9%	-5
COc1ccccc1NS(=O)(=O)c1cccc(C(=O)N2CCCCCC2)c1	.	.	-16	13%[15.4 µM]	-5%	.	-9
CCOc1ccc(NC(=O)C(=O)N/N=C/c2cccnc2)cc1	5.4	1.3%	.	-1%	-20%	3%	6
Cn1c(=O)c(C(=O)NCCO)c(O)c2ccccc21	-2.3	-7.4%	11	6%	-7%	8%	-3
NC(=NCCc1ccccc1)NS(=O)(=O)c1cccs1	-3.0	.	8	-16%	6%	16%	16
COCCn1c(=O)[nH]c2cc(C(=O)Nc3cccc(C(C)=O)c3)ccc2c1=O	5.2	-0.4%&-13%	50&12	-5%[15.4 µM]	6%	30%[activator]	2
CCCn1c2ccccc2c2cnn(CC(=O)NCCCN3CCCCC3)c(=O)c21	.	4.0%&4.6%	3&1	-69%[inhibitor]	8%	7%	-6
COc1ccc(OC(C)C(=O)NCC2CCCO2)cc1 (stereo not drawn)	.	-5.6%	12	3%[15.4 µM]	-8%	.	.
Cc1ccc(C2=NS(=O)(=O)N(C)C(C(=O)NCc3ccc(F)cc3)=C2)cc1	2.6	-3.3%	4	-33%[inhibitor]	-7%	17%	-6
Cc1ccccc1OCC(=O)NNC(=O)C1CCN(c2ncnc3sc(C)c(C)c23)CC1	.	-1.3%	6	0%	35µM*	.	3
COc1ccc(CCNC(=O)Cn2cccc2C(=O)c2ccccc2C)cc1OC	?	-1.0%	-4	-21%[15.4 µM]	-3%	23%	-3

High-throughput results deposited in PubChem BioAssay by National Center for Advancing Translational Sciences (NCATS).
